# Screening results deposited in PubChem BioAssay by National Center for Advancing Translational Sciences (NCATS).
# SARS PLP yeast: blocks SARS-CoV papain-like protease in a yeast assay. AID 485353. actives 0.19% (n = 330,000). Potency, µM (top dose mostly 32.9 µM), for the others: at the top dose activity, positive = growth rescue. S. cerevisiae expressing SARS-CoV PLpro, growth rescue; control for the full effect not named in the record; further: 0% is about no effect; nearly all actives have a fitted effect of over 55% in size; growth read by luminescence after 48 h
# NS1 inh: inhibitors of influenza NS1 protein function; actives 0.4% (n = 270,000); S. cerevisiae slowed by influenza A NS1, growth recovery by OD600; Potency, µM (doses to about 46.1 µM), for the others: at the top dose activity, positive = more growth; further: actives are rising curves; nearly all actives have a fitted effect of over 50% in size
#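 A cell-based growth assay was used: compounds that relieve NS1-induced slow growth of budding yeast raise OD600. Assay medium was yeast nitrogen base with ammonium sulphate and -URA supplement, pH 6.0, with 2% galactose.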
# Lassa entry inh: blocks Lassa virus binding to or entry into cells; Lassa virus pseudotype entry inhibition, cell reporter; control for the full effect not named in the record; Potency, µM (series often up to 37.9 µM), inactives show at the highest dose activity change, negative = inhibition, hits mostly inhibitors; actives 1.2% (n = 300,000); AID 540256; active means well fitted inhibition curve with a large enough effect; inconclusive means small, poorly fitted or top-dose-only effect, or effect the other way; inactive means flat fitted curve, though single readings scatter; tested in HEK293 cells; further: on the % scale 0 is the no-effect control and ±100 the full control effect; nearly all actives have a fitted effect of over 50% in size; luciferase read-out
# 2A StopGo: FMDV 2A StopGo reporter, luciferase signal; Potency, µM (top dose mostly 57.9 µM), without a hit: top-dose signal change, negative = less light; actives 1.2% (n = 410,000); human cells with a luciferase reporter of 2A StopGo recoding; control for the full effect not named in the record; AID 1159524; active = well fitted falling curve with a large enough effect; inconclusive = small, poorly fitted or top-dose-only effect; inactive = no such curve, though single readings can be large or run the other way; tested in HEK293T cells; further: on the % scale 0 is the no-effect control and ±100 the full control effect; nearly all actives have a fitted effect of over 45% in size; luciferase light after 4 h
# MARV entry inh: inhibitors of Marburg virus binding or cell entry. Potency, µM (highest dose often 37.8 µM), for inactives: top-dose activity change, negative = inhibition, most hits filed as inhibitors. Marburg virus pseudotyped entry inhibition, cell reporter; control for the full effect not named in the record; about a third of the inactives were read at about 46 µM. actives 1.8% (n = 300,000); active = well fitted inhibition curve with a large enough effect; inconclusive = small, poorly fitted or top-dose-only effect, or effect the other way; inactive = flat fitted curve, though single readings scatter; tested in HEK293 cells; about a fifth of its hits are not listed in these tables; further: on the % scale 0 is the no-effect control and ±100 the full control effect; luciferase read-out
# Cruzain inh noDet: blocks cruzain activity in detergent-free assay; Potency, µM, for inactives: max response, negative = inhibition, hits mostly inhibitors; P25779; purified cruzain, Z-FR-AMC fluorescence, no detergent; AID 1476; actives 2.3% (n = 200,000); active means well fitted curve in the direction sought with a large enough effect; inconclusive means small, poorly fitted or top-dose-only effect, or another doubt; inactive means no such curve, though single readings can be large; an effect the other way counts as inactive or inconclusive;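 further: plate controls were enzyme without inhibitor for no effect and buffer without enzyme for full effect; nearly all actives have a fitted effect of over 40% in size; top concentration of the series not given in the record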
# Target sequence (P25779 123-467 limits assumed): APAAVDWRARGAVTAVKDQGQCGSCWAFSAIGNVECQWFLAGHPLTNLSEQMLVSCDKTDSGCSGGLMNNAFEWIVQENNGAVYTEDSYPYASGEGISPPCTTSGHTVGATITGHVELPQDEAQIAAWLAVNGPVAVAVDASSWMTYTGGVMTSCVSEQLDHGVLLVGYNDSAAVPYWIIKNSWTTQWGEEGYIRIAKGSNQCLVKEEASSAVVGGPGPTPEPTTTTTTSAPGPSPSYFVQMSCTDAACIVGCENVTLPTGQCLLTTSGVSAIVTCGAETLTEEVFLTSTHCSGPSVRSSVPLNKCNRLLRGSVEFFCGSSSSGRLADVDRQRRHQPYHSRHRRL
#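 Detergent-free condition (0.00005% Triton X-100) in acetate buffer pH 5.5 with DTT. 1.5 nM enzyme and compound were pre-mixed 15 min, then 2 uM Z-FR-AMC substrate added; reaction progress from fluorescence change between first and third reads (60 s).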
# RE007 growth inh: less growth of the S. pombe RE007 Vpr strain. S. pombe RE007 Vpr strain, BacTiter-Glo ATP luminescence, 24 h; control for the full effect not named in the record. Potency, µM (titrated, usually from 92.2 µM), for inactives: top-dose activity change, negative = less growth. actives 0.21% (n = 360,000); active = well fitted falling curve with a large enough effect; inconclusive = small, poorly fitted or top-dose-only effect; inactive = no such curve, though single readings can be large or run the other way;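 further: on the % scale 0 is the no-effect control and ±100 the full control effect; nearly all actives have a fitted effect of over 50% in size; the assay follows cell death caused by Vpr and the record does not say whether a fall means rescue or toxicity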
#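 Fission yeast RE007 carrying one integrated HIV-1 vpr copy, seeded at OD 0.01 in PMG+AL medium with 23 nL pinned compound. Grown 24 h at 30 degrees; viability read by BacTiter-Glo luminescence after 5 min.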
# Cruzain Triton: inhibitors of Trypanosoma cruzi cruzain with detergent; P25779; purified cruzain, Z-FR-AMC fluorescence, 0.01% Triton; Potency, µM, without a hit: max response, negative = inhibition, most hits filed as inhibitors; actives 0.43% (n = 200,000); AID 1478; active means well fitted curve in the direction sought with a large enough effect; inconclusive means small, poorly fitted or top-dose-only effect, or another doubt; inactive means no such curve, though single readings can be large; an effect the other way counts as inactive or inconclusive;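 further: plate controls were neutral wells for no effect and buffer without enzyme for full effect; nearly all actives have a fitted effect of over 40% in size; top concentration of the series not given in the record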
#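 Detergent-containing run (0.01% Triton X-100) in acetate buffer pH 5.5 with 5 mM DTT: enzyme at 1.5 nM final, 15 min compound preincubation at room temperature, then 2 uM Z-FR-AMC substrate. Activity taken as 60 s fluorescence increase at 360/450 nm.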
# Starred values were filed as active, the others as inactive; ? = inconclusive; . = no result given; & = joins results of further samples; [ ] = remark or other dose. Unless noted, the call rests on the fitted dose curve; in most records, active means well fitted rising curve with a large enough effect; inconclusive means small, poorly fitted or top-dose-only effect; inactive means no such curve, though single readings can be large or run the other way. Potency means the concentration at half of the fitted maximal effect.
SMILES,SARS PLP yeast,NS1 inh,Lassa entry inh,2A StopGo,MARV entry inh,Cruzain inh noDet,RE007 growth inh,Cruzain Triton
COc1ccc(C(C)=O)cc1COC(=O)c1cc(C)nc2ccccc12,-8%,.,14%[46.1 µM],-6%,?,.,1%,.
N=C(c1ccc([N+](=O)[O-])cc1)N1CCCCC1,0%,3%,.,-11%,.,.,13%,.
CC(C(=O)NC1CCCCC1)N1C(=O)C2C3C=CC(C3)C2C1=O (stereo not given),3%,-9%,13%[46.1 µM],-7%,3%[46.1 µM],.,-3%,.
O=C(COc1ccccc1Cl)Nc1ccc(-c2nc3ccccc3s2)cc1,.,.,23%[46.1 µM],-5%,.,-3%,.,-1.8%
CC(Sc1nnnn1-c1ccccc1)C(=O)Nc1ccc(Cl)cn1 (stereo not given),-8%,-15%,-20%,-22%,-1%,-11%,12%,-1.9%
O=C(Nc1ccccc1C(F)(F)F)Nc1c[nH]c(=O)[nH]c1=O,.,.,17%[46.1 µM],-8%,.,-17%,.,0.9%
NC(=O)Cn1cnc(-c2ccccc2)c1,-1%,-6%,-1%,7%,?,-1%,-2%,-0.6%
CCOC(=O)CNC(=O)CSc1nc2cccnc2n1C1CCCCC1,-2%,-8%,-1%,-12%,4%,4%,-15%,1.0%
S=C(NCc1ccc2[nH]c3c(c2c1)CCCC3)Nc1ccccc1,1%,16%,-20%,11%,-7%,32µM*,0%,-9.9%
O=C(CCNc1cccc(F)c1)c1cccc([N+](=O)[O-])c1,-3%,0%,6%,12%,1%,.,?,.
CCC1CCCCN1CCCNC(=O)c1ccc(N2CCOCC2)c(NS(=O)(=O)c2ccc(OC)cc2)c1 (stereo not given),1%,.,9%[46.1 µM],-11%,?,.,-9%,.
COc1cc(C(=O)N2CCC(NC(=O)C(Cc3ccccc3C)NC(C)=O)CC2)cc(OC)c1OC (stereo not given),?,-6%,-10%,-17%,?,-18%,-18%,-1.3%
COc1ccc(CNC(=O)CSc2nnc(C)s2)cc1,11%,0%,6%,7%,24%,-6%,4%,4.9%
Cc1cc(OCC(=O)Nc2sc3c(c2C#N)CCC(C)C3)ccc1Cl (stereo not given),.,.,4%[46.1 µM],4%,.,6%,.,-0.4%
Clc1ccc(Cn2ncc3c(N4CCOCC4)ncnc32)cc1,-4%,-32%,1%,?,-18%,17%,-12%,-3.5%
Cc1ccc(CCN2CC(C(=O)O)CC2=O)cc1 (stereo not given),-1%,-4%,23%,.,10%,-2%,8%,4.7%
CCN(CC)S(=O)(=O)c1ccc(C(=O)NCc2n[nH]c(=S)n2-c2ccccc2OC)cc1,1%,-11%,0%,.,3%&22%,3%,5%,2.6%
Cc1cc(C)cc(N(C(C)C(=O)NCCC2=CCCCC2)S(C)(=O)=O)c1 (stereo not given),-8%,6%,-1%,-27%,-6%,?,-2%,0.6%
Fc1ccccc1CSc1nc2ncccc2[nH]1,-15%,2%,0%,25%,16%,-3%,-16%,2.8%
CCOC(=O)c1cnc2ccc(OC)cc2c1Nc1cccc(C(C)=O)c1,.,.,?,-18%,.,-28%,.,-29%
Cc1cc2c(=O)n(C)c(SCC(=O)Nc3ccccc3C)nc2s1,2%,.,-21%,-2%,-2%[46.1 µM],.,8%,.
CCOc1ccccc1-n1nnnc1SCC(=O)NC(=O)Nc1ccc2c(c1)OCCO2,-2%,-1%,3%,-24%,?,10%,6%,-2.2%
Nc1nonc1-c1nc2ccccc2n1CC(=O)Nc1ccc(F)cc1,.,.,?,-24%,?,-5%,.,-2.3%
COc1ccc(/C=C2\SC(=O)N(CCNC(=O)CCS(=O)(=O)c3ccc(C)cc3)C2=O)cc1,-29%,14%,?,-6%,7%,-4%,-3%,-12%
CCN(CC(=O)NCc1cccs1)C(=O)c1cccc(S(=O)(=O)NCc2ccccc2)c1,1%,.,?,20%,1%,.,12%,.
Cc1ccc(NC(=O)CCS(=O)(=O)c2cccc3nonc23)c(Cl)c1,14%,11%,-7%,42%[activator],-1%[46.1 µM],.,-5%,.
COc1cc(/C=N\Nc2cc(=O)n(C)c(=O)n2C)ccc1O,26%,-22%,3%,-11%,-28%,-1%,-4%,-7.7%
COc1ccc(C)cc1-n1nnnc1SC/C(O)=C(\C#N)c1nc2ccccc2[nH]1,-2%,1%,-5%,21%,-4%&-9%,-14%,13%,2.7%
CC1(NC(=S)NCCO)CCS(=O)(=O)C1 (stereo not given),16%,8%,2%,-15%,-7%,-1%,-3%,1.5%
COc1ccc(NC(=O)N/C=C/c2ccc(Cl)cc2)cc1,0%,-4%,?,-1%,-15%,.,16%,.
CC(Oc1cc2oc(=O)c3c(c2cc1Cl)CCC3)C(=O)NC1CC(C)(C)NC(C)(C)C1 (stereo not given),?,-2%,.,29%,.,.,5%,.
CCOC(=O)N1CCN(C(=O)c2ccccc2CCc2ccccc2)CC1,-4%,-13%,?,-26%,-4%,10%,-7%,2.1%
O=C1CC(c2ccccc2)=Nc2ccccc2N1,-5%[6.58 µM],-1%,5%,.,6%,-25%,1%,-0.6%
C/C(=C\C(=O)Nc1cc(C)on1)c1ccccc1,-18%,-22%,1%,54%[activator],14%,-8%,11%,2.4%
COc1ccc(-c2csc(=Nc3ccccc3)n2CCO)cc1F,.,.,-24%[46.1 µM],?,?,-9%,.,-5.8%
COc1cc(C)c(S(=O)(=O)N2CCN=C2c2ccccc2)cc1C,15%,3%,-2%,-22%,0%,2%,-11%,-4.2%
COc1ccc(CCNC(=O)Cc2c(C)c3cc4c(C)coc4c(C)c3oc2=O)cc1,.,.,4%[46.1 µM],-4%,?,-7%,.,7.6%
CSc1ccccc1NC(=O)CN(C)CC(=O)Nc1cccc(Br)c1,-3%,1%,?,?,?,.,-18%,.
Cc1ccc(C)c(NC(NC(=O)c2ccccn2)C(Cl)(Cl)Cl)c1 (stereo not given),2%,0%,-11%[46.1 µM],-4%,-15%[46.1 µM],.,2%,.
CC(=O)Nc1ccc(OCC(O)Cn2c3ccccc3c3ccccc32)c(C)c1 (stereo not given),-1%,2%,?,22µM*,-13%,?,8%,-7.8%
COc1ccc(S(=O)(=O)N2CC=C(C(=O)Nc3ccc(NC(C)=O)cc3)CC2)cc1,0%,.,.,1%,2%[46.1 µM],.,-16%,.
Cc1ccc(Cl)cc1NC(=O)CNC(=O)N1CC(=O)Nc2ccccc21,-4%,-7%,.,-9%,.,.,0%,.
Cc1cccc(-c2noc(-c3ccccc3NC(=O)C3CC(=O)N(c4ccccc4C)C3)n2)c1 (stereo not given),.,.,6%[46.1 µM],-11%,-3%[46.1 µM],7%,.,-1.7%
Nc1ccc2oc3ccc(N)cc3c(=O)c2c1,6%,-3%,?,.,8%,-10%,-5%,-0.3%
CN1CCN(c2ccccc2NC(=O)COc2ccc(Br)cc2)CC1,-6%,-4%,23%,?,-23%,-2%,9%,1.6%
O=C(NC(=S)Nc1cccc(CO)c1)c1ccc(-c2ccccc2)cc1,9%,22%,?,-12%,4%,1%,0%,-6.3%
N/C(CSc1ccc(Cl)cc1)=N\S(=O)(=O)c1ccc(Cl)cc1,-1%,1%,10%[46.1 µM],-21%,-6%[46.1 µM],.,7%,.
Cc1cccc2cc(CN(Cc3ccc(F)cc3)C(=O)N(C)C)c3nnnn3c12,3%,-36%,8%,?,0%,?,5%,-4.4%
CCCOc1ccc(CNCCCOCC)cc1OC,2%,.,-8%,-11%,?,.,1%,.
O=C(CCN1C(=O)C2CC=CCC2C1=O)Nc1cccc(Cl)c1 (stereo not given),-4%,3%,-30%,4%,10%,.,7%,.
COc1cccc(CC(=O)Nc2nc3c(s2)C(=O)CC(C)(C)C3)c1,-1%,.,13%[46.1 µM],16%,?,.,-14%,.
C=CCN1C(=O)/C(=c2\sc3nc(=O)c(Cc4ccccc4Cl)nn3c2=O)c2ccccc21,-1%,3%,8%,-29%,?,.,-10%,.
Cc1c2cnccc2c(C)c2c1oc1ccccc12,.,.,-2%[46.1 µM],25%,-23%,.,?,.
COc1ccc(-c2cc(C(=O)Nc3cc(Cl)ccc3OC)no2)cc1,1%,4%,?,4%,?,.,-4%,.
Cc1ccc(C)c(OCC(O)CN2CCc3ccccc3C2)c1C (stereo not given),2%,2%,.,0%,.,.,-13%,.
CCOC(=O)N1CCN(C(=O)C2CCC(=O)N(Cc3ccc(Cl)cc3)C2)CC1 (stereo not given),4%,22%,-6%,-11%,?,.,0%,.
COC(=O)c1cc(S(=O)(=O)NCCCc2ccco2)c[nH]1,-1%,8%,.,15%,.,.,1%,.
CCOC(=O)c1cc2occc2n1CC(=O)NCCOC,0%,-3%,12%,-2%,3%,-5%,4%,-0.6%
CCOC(=O)C1=C(Nc2ccc(OC)cc2)OCC1=O,0%,-1%,15%,7%,23%,.,2%,.
O=C(COc1ccc2ccc(=O)oc2c1)NC1CCS(=O)(=O)C1 (stereo not given),1%,.,2%[46.1 µM],-11%,-13%[46.1 µM],.,-7%,.

# The list goes on:
SMILES,SARS PLP yeast,NS1 inh,Lassa entry inh,2A StopGo,MARV entry inh,Cruzain inh noDet,RE007 growth inh,Cruzain Triton
CCSc1nnc(-c2ccccc2N=Cc2c(C)[nH]n(-c3ccccc3)c2=O)c(=O)[nH]1,7%,12%,-1%,-13%,?,?,-5%,-8.7%
CC(C)Nc1ncnc2c1cnn2-c1ccc(Cl)cc1,-24%,-131%,.,-23%,.,-6%,?,0.0%
COc1ccc(OC)c(CN2CCN(c3ccccc3OC)CC2)c1,2%,2%,-24%,?,?,-11%,-8%,3.3%
CCOc1cc(CNCCc2ccc(S(N)(=O)=O)cc2)cc(Cl)c1OCc1ccccc1,-7%,-5%,?,20µM*,?,8%,-11%,3.0%
Cc1ccc(Nc2cc(C(=O)NC3CCCC3)c3ccccc3n2)cc1C,.,.,-24%[46.1 µM],?,.,7%,.,-12%
COc1ccc(S(=O)(=O)N(CC(=O)N2CCOCC2)c2ccc(F)cc2)cc1OC,2%,7%,1%,5%,1%[46.1 µM],.,8%,.
Cc1ccc(S(=O)(=O)N2CCCc3cc(NC(=O)c4c(F)cccc4F)ccc32)cc1,1%,-13%,-30%[46.1 µM],-8%&9%,.,?,4%,-3.9%
N#Cc1ccc(COC(=O)C2CC(=O)N(CCc3ccccc3)C2)cc1 (stereo not given),0%,.,23%,4%,2%,.,-15%,.
